Bioassay records as filed in PubChem BioAssay.
D2 PAM = potentiates the human D2 dopamine receptor allosterically; P14416; DiscoveRx D2 beta-arrestin cells, luminescence, 90 min; 100% = 57 uM dopamine signal; potentiation, % (no concentration beside the values); 360,000 compounds, 0.23% hits; active = potentiation of 50% or more; inconclusive = 30% to 50%; inactive = 30% or less;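 also: compound concentration not given in the record; tested on top of an EC20 dose of dopamine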
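PathHunter D2 cells, attached overnight at 37 deg C, received compound in DMSO plus dopamine at EC20 (50 nM final) for 90 min at 37 deg C. Beta-arrestin recruitment was read as luminescence after 1 h with detection reagent at ambient temperature.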
TRPML1 blocker = human mucolipin-1 channel inhibition | Q9GZU1 | TRPML1-inducible cells, Ca2+ dye fluorescence, FDSS; active compounds read low; inhibition of EC80 agonist-evoked calcium signal | activity change, negative = inhibition, % (no concentration beside the values) | 390,000 compounds, 0.02% hits | AID 624415; in the data active means activity change below about -50%; inconclusive means about -30% to -50%; inactive means above about -30%;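 also: stimulus is agonist 54-4 at its EC80 concentration; % is scaled to controls: 0 for no effect and ±100 for the full control effect; compound concentration not given in the record; the text of the record puts the active cut at -80%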
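Tet-induced TRPML1-DL cells loaded with Ca8 no-wash calcium dye were read kinetically on FDSS. Compound addition was followed by EC80 agonist 54-4 (4 uM final); inhibition was read over 110 s.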
TRPML1 agonist = activates the human TRPML1 channel. Q9GZU1. TRPML1-expressing cells, Ca2+ dye fluorescence, FDSS; host cell line not named in the record; reference of the full effect not given here. 410,000 compounds, 0.12% hits. AID 624414. activation, % (test concentration not listed); in the data active = activation above about 50%; inconclusive = about 30% to 50%; inactive = below about 30%; also: 0% is about no effect; the text of the record puts the active cut at 80%
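Cells: TRPML1-DL, 1X Tet inducer, ~16 h at 37 degrees C/5% CO2. Dye: ABD Ca8 no-wash + quencher, 45-90 min RT. Read: 10 s baseline, compound add, 110 s agonist phase; 54-4 EC80 (4uM final), 110 s antagonist phase.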
CtBP-E1A blk = blocks the CtBP interaction with E1A; AlphaScreen GST-E1A/His-CtBP binding, 1536-well; active compounds read low; control for the full effect not named in the record; 340,000 compounds, 0.49% hits; activity change, % (concentration not given with the values); AID 651724; in the data active means activity change below about -65%; inconclusive means about -30% to -65%; inactive means above about -30%; also: % is scaled to controls: 0 for no effect and ±100 for the full control effect
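In 5 uL wells, 23 nL compound meets equimolar GST-E1A and His-CtBP (5X stock 125 nM each) for 2 h, 37 °C. Beads (5X, 50 ug/mL) then 1 h, 37 °C, dark.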
TRPV1 potentiator = human TRPV1 potentiation; Q8NER1; TRPV1-expressing cells, Fluo-8 calcium influx, capsaicin EC20 potentiation; host cell line not named in the record; control for the full effect not named in the record; potentiation, % at 8.33 µM; 320,000 compounds, 0.02% hits; active means potentiation above 80%; inconclusive means 30% to 80%; inactive means below 30%; also: 0% is about no effect
Target sequence (Q8NER1 whole entry, looked up): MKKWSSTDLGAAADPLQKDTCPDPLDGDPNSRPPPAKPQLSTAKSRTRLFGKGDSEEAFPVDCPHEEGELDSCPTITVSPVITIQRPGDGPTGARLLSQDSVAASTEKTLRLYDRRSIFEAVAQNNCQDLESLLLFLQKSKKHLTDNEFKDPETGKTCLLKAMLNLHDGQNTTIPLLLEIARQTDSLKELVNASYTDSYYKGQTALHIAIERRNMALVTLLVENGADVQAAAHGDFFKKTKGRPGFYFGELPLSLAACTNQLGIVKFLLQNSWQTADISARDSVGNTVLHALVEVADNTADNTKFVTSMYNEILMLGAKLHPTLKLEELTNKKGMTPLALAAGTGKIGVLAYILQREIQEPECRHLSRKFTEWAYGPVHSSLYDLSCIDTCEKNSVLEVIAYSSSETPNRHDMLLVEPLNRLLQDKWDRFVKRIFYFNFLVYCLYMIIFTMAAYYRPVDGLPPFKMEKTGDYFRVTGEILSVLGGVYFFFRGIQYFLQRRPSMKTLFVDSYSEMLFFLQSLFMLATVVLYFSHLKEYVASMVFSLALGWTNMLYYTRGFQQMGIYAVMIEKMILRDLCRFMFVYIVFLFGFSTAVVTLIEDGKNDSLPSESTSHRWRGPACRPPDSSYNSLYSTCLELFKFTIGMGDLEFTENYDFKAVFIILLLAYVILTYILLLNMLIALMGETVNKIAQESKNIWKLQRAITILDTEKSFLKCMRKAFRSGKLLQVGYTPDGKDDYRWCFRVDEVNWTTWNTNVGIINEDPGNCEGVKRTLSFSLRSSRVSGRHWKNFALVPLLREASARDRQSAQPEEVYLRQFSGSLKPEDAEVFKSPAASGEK
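Fluo-8 calcium influx in TRPV1-expressing cells, kinetic read (ex 480/em 520 nm). Compound added and read 3 min for agonist activity, followed by capsaicin at EC20 final and 2 min further read for enhancement.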
Six1-Eya2 blk = inhibitors of human Six1/Eya2 interaction; AlphaScreen GST-Six1/His-Eya2 binding, biochemical; active compounds read low; control for the full effect not named in the record; activity change, % (no concentration beside the values); 360,000 compounds, 0.56% hits; AID 651725; in the data active = activity change below about -65%; inconclusive = about -30% to -65%; inactive = above about -30%; also: % is scaled to controls: 0 for no effect and ±100 for the full control effect
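Homogeneous AlphaScreen proximity assay pairing GST-Six1 with His-tagged Eya2 (added as 5X mix: 250 nM and 500 nM) in 50 mM Tris pH 8.0, 300 mM NaCl, 1 mM TCEP. Glutathione donor and nickel acceptor beads; 1 h, 37 °C, dark.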
* = called active by the depositor; ? = inconclusive; nt = no result given; & = joins results of further samples.

Fields: D2 PAM	TRPML1 blocker	TRPML1 agonist	CtBP-E1A blk	TRPV1 potentiator	Six1-Eya2 blk
- Cc1cccc(C(=O)Nc2nnc(-c3ccc(C(C)(C)C)cc3)s2)c1
    -5	10	-0.8	0	4	3
- Cc1cccnc1NC(=O)CCc1nnc2ccc(NCc3ccco3)nn12
    -5	22	0.0	-24	4	-3
- COc1cccc2c3c(c(=O)[nH]c12)CC(C)(C)O3
    1	-6	2.1	7	nt	8
- O=C(N/N=C/c1ccc(N2CCOCC2)o1)c1cccc(C(F)(F)F)c1
    1	4	-0.7	-3	0	0
- Cc1c(C(=O)NCc2ccc(F)cc2)sc(=O)n1Cc1ccc(C(=O)c2ccccc2)cc1
    1	nt	-0.5	-28	nt	-3
- COc1ccc(CCNC(=O)c2cc3c(=O)n(C)c4ccccc4c3n2C)c(OC)c1
    -9	-1	1.7	nt	4	-2
- O=[N+]([O-])c1ccc(Cl)cc1N/N=C/c1ccncc1
    -14	2	-0.7	nt	-1	4
- CCOc1ccc(Br)cc1S(=O)(=O)NCC(c1ccc(OC)cc1)N1CCOCC1 (stereo not drawn)
    0	18	0.0	0	nt	11
- CCCCCOc1ccc(/C(C)=N/NC2=NCCN2)cc1
    -4	-5	-0.5	8	-8	0
- COc1ccc(S(=O)(=O)N2CCC(C(=O)NCc3cccnc3)CC2)cc1C
    0	-10	-0.8	0	3	-3
- O=C(Nc1cccc(O)c1)c1ccc(C(F)(F)F)cc1
    -2	2	1.5	13	-27	-3
- OCC1OC(n2cnc3c(N4CCCCC4)ncnc32)C(O)C1O (stereo not drawn)
    -7	6	0.1	6	nt	0
- C=CCN(CC=C)C(=O)C1CCN(S(=O)(=O)c2ccc(N3CCCC3=O)cc2)CC1
    -7	22	0.9	nt	3	1
- O=C(Nc1cc(C(F)(F)F)ccc1-n1cncn1)c1ccc(F)cc1Cl
    -10	-11	0.6	-2	-31	-3
- Cc1cc(C)nc(NS(=O)(=O)c2ccc(NC(=O)Cc3ccccc3)cc2)n1
    1	11	-0.5	1	?	0
- CCOc1ccc(C(O)Cc2nc3ccccc3n2C)cc1 (stereo not drawn)
    -3	10	-0.5	8	2	1
- Cc1cc(C(C#N)c2ccc(Cl)cc2)c(Cl)cc1NC(=O)c1cc(I)cc(I)c1O (stereo not drawn)
    -5	-12	1.7	13	1	9
- CC(C)CC(=O)OC(C)(C)[C@@H]1Cc2c(ccc3ccc(=O)oc23)O1
    0	-11	4.1	10	nt	3
- COC(=O)c1ccc(C2/C(=C(\O)c3ccc4c(c3)OCCO4)C(=O)C(=O)N2CCCN2CCOCC2)cc1 (stereo not drawn)
    -4	-1	-0.5	4	2	2
- Cc1cc(NC(=O)Cn2cc([N+](=O)[O-])cn2)no1
    -5	-6	2.8	42	4	0
- CN(Cc1ccccc1)C(=O)N[C@@H](Cc1ccccc1)C(=O)O
    -9	-5	0.2	-2	3	0
- CCCCC(=Nc1ccccc1OC)C1=C(O)CC(c2ccccc2)CC1=O (stereo not drawn)
    20	9	1.7	-13	-8	1
- CNC(=O)Nc1ccc(C2SCCS2)cc1
    -12	0	-0.1	-2	-25	4
- Cc1cccc(C(=O)N2CCCCCC2)c1
    -7	1	0.3	-5	?	2
- COc1cc2c(cc1OC)C(c1cccc(C)c1)CC(=O)N2 (stereo not drawn)
    -6	-1	-0.1	nt	15	0
- Cc1[nH]n2c(=O)c3c(nc2c1-c1ccc(Cl)cc1)CCC3
    -35	-21	-0.8	-4	5	-10
- CCC(c1nnnn1Cc1cccs1)N1CCN(C(=O)c2ccco2)CC1 (stereo not drawn)
    -2	-20	1.5	3	-4	-8
- Cc1cc(C(=O)N/N=C/c2cccnc2)cs1
    -28	5	0.1	1	-8	-2
- C=C(C1=CCN(S(=O)(=O)C(C)(C)C)[C@H]1CCO)c1ccccc1
    nt	0	0.0	-1	nt	-2
- CC(C)(C)NC(=O)Nc1ccc(Br)cc1
    -1	-14	1.0	22	-11	4
- COc1ccc(NC(=S)N2CCN(c3ccc4c(c3)C3CCN(C(=O)OCc5ccccc5)C4C3)CC2)c(OC)c1 (stereo not drawn)
    -6	nt	-0.1	-19	nt	-20
- O=C(CN1CCN(C(=O)c2ccco2)CC1)Nc1c2c(nc3c1CCC3)CCCC2
    -4	-20	1.1	-1	-13	2
- CCOc1ncccc1C(=O)Nc1cc(C(F)(F)F)ccc1N1CCOCC1
    -6	-4	-0.4	nt	-13	3
- CCOC(=O)C1=NN(C(=O)Nc2ccc(OC)cc2)C2C(=O)N(c3cccc(C(F)(F)F)c3)C(=O)C12 (stereo not drawn)
    2	9	0.2	-3	17	-8
- CCN(CC)CC(O)CNc1ccnc2c(Cl)ccc(Cl)c12 (stereo not drawn)
    -13	?	-0.1	3	nt	-4
- CN(C(=O)CCOc1ccccc1)c1c(N)n(Cc2ccccc2)c(=O)[nH]c1=O
    0	-5	-0.9	12	-13	-1
- Nc1nc(SCc2ccccc2Cl)n[nH]1
    7	2	0.4	3	20	-1
- Cc1ccc(C(C(=O)NCC2CCCO2)N(Cc2ccccc2)C(=O)c2ccc(-c3ccccc3)[nH]2)o1 (stereo not drawn)
    -2	-7	0.5	?	-5	0
- O=S(=O)(NCCCN1CCOCC1)c1ccc2c(c1)OCCO2
    -14	-1	-0.6	2	-11	6
- Cc1ccc(C(=O)N/C(=C/c2ccco2)C(=O)NCc2ccco2)cc1
    -6	-10	0.2	1	2	13
- C/C(=N\NC(=O)c1n[nH]c2c1CCC2)c1ccco1
    -5	15	0.6	-20	10	-19
- O=C(CCCc1ccccn1)c1ccc(-c2ccccc2)cc1
    -12	20	1.0	21	nt	10
- CC(CN1CCN(CCOCCO)CC1)CN1c2ccccc2Sc2ccc(Cl)cc21 (stereo not drawn)
    -21	16	0.6	9	nt	-25
- COc1ccc(NC(=O)C2CCN(c3nc(C)cc(C)n3)CC2)cc1
    11	-6	1.1	5	22	?
- CN(Cc1ccccc1)C(=O)[C@@H]1CCCN1C(=O)[C@@H]1CCCN1C(=O)c1ccc(Cl)cc1
    nt	nt	-0.7	-2	nt	-6
- NC(=O)Cc1ccc2c(c1)[nH]c1ccccc12
    -5	6	1.8	nt	-3	6
- CCOC(=O)N1CCN(C(=O)c2cc(COc3cccc(C(C)=O)c3)on2)CC1
    8	13	1.3	5	1	0
- Cc1cccc(/C=C/c2nc3ccccc3c(=O)n2Cc2ccccc2)c1
    -7	40	3.4	1	1	13
- CC(=O)Nc1cncc(-c2ccccc2N(C)C)n1
    -3	nt	-0.6	1	nt	6
- Cc1ccn2cc(-c3ccc4c(c3)NC(=O)CO4)nc2c1
    -8	40	4.6	-8	5	-3

Next records
Fields: D2 PAM	TRPML1 blocker	TRPML1 agonist	CtBP-E1A blk	TRPV1 potentiator	Six1-Eya2 blk
- N#C/C(=C/C1=C(N2CCOCC2)C(=C/c2cccc([N+](=O)[O-])c2)/CC1)C(=O)Nc1ccccc1F
    -8	11	1.9	-7	nt	-16
- C[C@H]1COC(=O)[C@@H](Cc2ccc(F)cc2)CC/C=C/C[C@@H](CC(=O)N(CCO)Cc2ccccc2)C(=O)N1
    1	-15	0.1	-10	nt	8
- O=C(Nc1ccc(S(=O)(=O)Nc2ncccn2)cc1)c1ccccc1Cl
    -15	-9&21	0.0&-0.2	nt	5	-5
- Clc1ccc(-c2cnc3cccnn23)cc1
    -13	-10	-0.4	10	nt	21
- Cc1ccc(S(=O)(=O)N2[C@@H](c3ccc(Cl)cc3)C(C(=O)O)=CC[C@H]2c2ccc(Cl)c(Cl)c2)cc1
    -5	28	0.6	8	-27	0
- O=C1NCCN(Cc2cccc(Oc3ccccc3)c2)C1CC(=O)N1CCCO1 (stereo not drawn)
    -2	4	0.7	-5	5	5
- CC(C)C(=O)Nc1ccc(C(=O)NNC(=O)NC2CCCCC2)cc1
    11	26	-0.3	-3	28	-7
- CC1=C(C(=O)Nc2cccc(C)c2C)C(c2cccs2)NC(=S)N1 (stereo not drawn)
    -5	3	-0.5	2	-1	9
- COC(=O)c1cccc(C(=O)N2CCCC(Nc3ccc4c(c3)OCCO4)C2)c1 (stereo not drawn)
    -3	16	-0.9	2	-21	-4
- CCCCn1nnnc1C(c1cc2ccccc2o1)N1CCOCC1 (stereo not drawn)
    nt	nt	-1.1	2	nt	-4

Five of the compounds above, in CSV form:
structure,D2 PAM,TRPML1 blocker,TRPML1 agonist,CtBP-E1A blk,TRPV1 potentiator,Six1-Eya2 blk
C[C@H]1COC(=O)[C@@H](Cc2ccc(F)cc2)CC/C=C/C[C@@H](CC(=O)N(CCO)Cc2ccccc2)C(=O)N1,1,-15,0.1,-10,nt,8
O=C(Nc1ccc(S(=O)(=O)Nc2ncccn2)cc1)c1ccccc1Cl,-15,-9&21,0.0&-0.2,nt,5,-5
Clc1ccc(-c2cnc3cccnn23)cc1,-13,-10,-0.4,10,nt,21
Cc1ccc(S(=O)(=O)N2[C@@H](c3ccc(Cl)cc3)C(C(=O)O)=CC[C@H]2c2ccc(Cl)c(Cl)c2)cc1,-5,28,0.6,8,-27,0
O=C1NCCN(Cc2cccc(Oc3ccccc3)c2)C1CC(=O)N1CCCO1 (stereo not drawn),-2,4,0.7,-5,5,5

Remaining list, next part:
Fields: D2 PAM	TRPML1 blocker	TRPML1 agonist	CtBP-E1A blk	TRPV1 potentiator	Six1-Eya2 blk
- Cc1nc(S(=O)(=O)c2cccc(Cl)c2)nc2c1CCC2
    5	12	2.0	1	18	-2
- OC(CSc1ccccc1Cl)CN1CCN(c2ccc(F)cc2)CC1 (stereo not drawn)
    -8	44	0.9	8	10	-27
- CN1c2ccccc2Oc2c(c(=O)n(C)c(=O)n2C)C1c1cccc([N+](=O)[O-])c1 (stereo not drawn)
    -20	-5	0.8	-1	-4	5
- Cc1ccc(-n2ncc3c2ncn2nc(-c4ccco4)nc32)c(C)c1
    -11	17	1.4	5	1	-2
- O=C(CN(Cc1ccc(F)cc1)C(=O)CCC(=O)Nc1nccs1)NCc1ccccc1
    4	6	-0.4	-7	4	13
- C=CCn1c(CNc2ccccc2)nnc1SCC(=O)N/N=C/c1ccccc1O
    -1	31	-0.7	?	-7	-72*
- O=C(CCNC(=O)N1CCn2c1nc1ccccc12)NCc1ccc(Cl)cc1
    -8	-14	0.7	-1	-17	1
- Cc1ccc(-n2c(CNc3ccc(F)cc3)nnc2SCC(=O)O)cc1
    8	-9	-0.1	7	6	-20
- CCN1CCN(CCCNC(=O)c2cn(CCOC)c(=O)c3c2c2ccccc2n3C)CC1
    -5	-8	0.3	8	19	0
- Cc1ccc(C(=O)NNC(=O)CCCN2C(=O)/C(=C/c3ccccc3Cl)SC2=S)cc1
    -8	0	2.4	-5	17	-13
- O=C(Nc1ccc(C(F)(F)F)cc1)C(Cc1ccccc1)n1cccc1 (stereo not drawn)
    nt	24	0.9	nt	-26	nt
- Cn1cnnc1SCC(=O)NC1CCCC1
    -5	6	-0.7	2	-4	3
- O=C(C[n+]1cccc2ccccc21)c1ccc(NC(=O)c2ccccc2)cc1
    -7	12	4.2	-10	10	-6
- O=C1CC(c2cccc(Cl)c2)C(n2cncn2)C(=O)C1C1NCCc2ccccc21 (stereo not drawn)
    -19	-8	1.5	-1	7	-1
- CN1C(=O)N2CN(C3CCCCC3)CN3C(=O)N(C)C1C23 (stereo not drawn)
    -5	-4	0.3	4	9	1
- Cc1cc(C)c(NC(=O)COc2cccnc2[N+](=O)[O-])c(C)c1
    -2	-20	3.8	7	22	2
